Bioassay records from PubChem BioAssay.
Tg IFNy HTS: T. gondii growth inhibition with IFN-gamma, primary screen, cell-based | hit rate 3.8% among 69,000 | AID 1259416, 2018 | Toxoplasma gondii growth in IFN-gamma-treated host cells; hits give low values; reference of the scale not given here | activity change, negative = inhibition, %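 (about 20 µM by stock and volumes)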;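 active means below -70%; inconclusive means fit judged invalid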;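 further: host cells are HeLa cells infected with Toxoplasma gondii; parasite growth read as luciferase light; one replicate is shown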
An asterisk follows results filed as active; i = inactive; ? = inconclusive; & = joins results of further samples. This is a subset; the hit share may differ from the screen's.

Molecule | Tg IFNy HTS
COCC(=O)N1CC[C@H]2CN(Cc3ccccc3)S(=O)(=O)[C@@H]2CC1 | 23
COCC(=O)N1CCCN(CC2=Cc3cccc(OC)c3OC2)CC1 | 1
Cc1cccc(C(=O)Nc2nc(-c3ccccc3)c(-c3ccccc3)s2)c1 | -72*
CCCC(=O)Nc1ccc2c(c1)OC[C@H](C)NC[C@@H](C)[C@H](OC)CN(C)C2=O | 215
COC(=O)c1cccc(NC(=O)Nc2ccc(-c3nc(-c4cc(C)ccc4C)co3)cc2)c1 | 14
O=C(NC1COC2(CCNCC2)C1)c1ccc(F)cc1 (stereo not drawn) | -32
COc1c[nH]c(CN2CCCCC2CCN2CCOCC2)cc1=O (stereo not drawn) | 14
CN1C(=O)C(c2ccccc2)CC12CCN(c1ncccn1)CC2 (stereo not drawn) | -4
CCN=C1SC(C(=O)Nc2ccc(C(=O)O)cc2)CC(=O)N1CC (stereo not drawn) | 12
CC(C)N1CCOC2(CCN(C(=O)c3ccc[nH]3)CC2)c2ccccc21 | 0

Additional records follow:
Molecule | Tg IFNy HTS
C=CCNc1ccccc1C(=O)N(C)CC1CCCCN1C (stereo not drawn) | -5
Cc1nn(C)c(C)c1CN(C(=O)c1cc2ncccn2n1)C1CC1 | 7
CCC(CO)N(Cc1ccsc1)C(=O)c1c[nH]c(=O)cn1 (stereo not drawn) | 11
O=C1N[C@H](c2ccccc2)COCc2cnnn2CC[C@@H]1Cc1ccc(C(F)(F)F)cc1 | 35
N#Cc1cccc(CN2CC[C@@H]3[C@H]2CCN3C(=O)c2cscn2)c1 | 5
Cc1nc(-c2ccccc2)ncc1C(=O)NCC1(O)CCCNCC1 (stereo not drawn) | 3
CCOC(=O)CSc1nnc(CCc2nc3ccccc3[nH]2)n1-c1ccccc1 | -1
COc1ccc(-c2noc(C(C)NS(=O)(=O)c3ccc(NC(C)=O)cc3)n2)cc1 (stereo not drawn) | -24
COc1cc2c(cc1OC)/C(=C/c1ccc(Cl)cc1)C(=O)OC2 | 3
CCc1ccc(Nc2nc(C(=O)NCc3ccc(OC)cc3)nc3ccccc23)cc1 | 1

By substructure, those above containing a halogen.
Molecule | Tg IFNy HTS
O=C(NC1COC2(CCNCC2)C1)c1ccc(F)cc1 (stereo not drawn) | -32
O=C1N[C@H](c2ccccc2)COCc2cnnn2CC[C@@H]1Cc1ccc(C(F)(F)F)cc1 | 35
COc1cc2c(cc1OC)/C(=C/c1ccc(Cl)cc1)C(=O)OC2 | 3

(listing goes on)
Molecule | Tg IFNy HTS
CCn1c(CC2CCN(Cc3cnc(OC)nc3)CC2)n[nH]c1=O | 7
CC(C)NC(=O)N1CCC2(CC1)CC1(CCN(c3ncccn3)CC1)C(=O)N2C | 3
O=C(Nc1ccc2c(c1)OCCO2)N1CCC2(CC1)Nc1ccccc1-n1cccc12 | i
COc1cc(OC)c(NC(=O)COc2nc(C)nc3ccccc23)cc1Cl | 2
C[C@@H]1CN([C@@H](C)CO)C(=O)CCCn2nncc2CO[C@H]1CN(C)S(=O)(=O)c1cn(C)cn1 | 13
COc1ccc(CC(=O)NCCc2sc(-c3ccc(Cl)cc3)nc2C)cc1OC | 63
Cc1cc(N)n(C2CCOC(C)(C)C2)n1 (stereo not drawn) | -7
O=c1[nH]cccc1-c1ccc2c(c1)OCCO2 | 18
O=C(c1cccc(F)c1)N1CC2CC(C1)N(CCO)C2 (stereo not drawn) | 6
Cc1ccc(N2C[C@@H](OCC(=O)N(C)C)[C@@H]3OCCC[C@@H]32)nn1 | -10

Entries above containing fluorine (three):
Molecule | Tg IFNy HTS
O=C(NC1COC2(CCNCC2)C1)c1ccc(F)cc1 (stereo not drawn) | -32
O=C1N[C@H](c2ccccc2)COCc2cnnn2CC[C@@H]1Cc1ccc(C(F)(F)F)cc1 | 35
O=C(c1cccc(F)c1)N1CC2CC(C1)N(CCO)C2 (stereo not drawn) | 6

Next part:
Molecule | Tg IFNy HTS
CN(C)C(=O)C[C@@H]1C=C[C@H](NC(=O)c2ccc(F)cc2)[C@H](CO)O1 | 35
COCCC(=O)c1cc(-c2ccn(-c3ccccc3)n2)n2ccccc12 | 89
CCOC(=O)C(NC(C)=O)(N1CCCCC1)C(F)(F)F (stereo not drawn) | -13
COc1cccc(CC(=O)NC(c2cc(=O)n3[nH]c(-c4ccccn4)cc3n2)C(C)C)c1 (stereo not drawn) | 2
Cc1ccccc1-c1ncc(CN(CCN(C)C)Cc2cccs2)cn1 | -25
O=C(NCCc1csc(-c2ccccc2)n1)[C@H]1CSCN1S(=O)(=O)c1cccc(Cl)c1 | -42
CCCN1C[C@@H](C)[C@@H](OC)CN(C)C(=O)c2cc(NC(=O)Nc3cccc(F)c3)ccc2OC[C@@H]1C | -34
COc1ccc2c(C=O)cn(C)c2c1 | 30
COc1ccc2c(c1)CC(NCC1CCN(C(=O)C(C)C)CC1)CC2 (stereo not drawn) | -2
O=C(c1cc(-c2ccccc2)no1)N1CCCC(c2cc(C(F)(F)F)n3ncnc3n2)C1 (stereo not drawn) | -52

More structures:
Molecule | Tg IFNy HTS
Cc1ccsc1C(=O)N1CC(C(=O)NCC2CC2)C2(CCOCC2)C1 (stereo not drawn) | 5
O=C(O)[C@H]1C[C@H](C(=O)NC2CC2)CN(Cc2cccc(C(F)(F)F)c2)C1 | -36
C/C=C/c1ccc([C@H]2[C@@H](CO)N3C(=O)CN(C(=O)NC4CCCCC4)C[C@@H]23)cc1 | 14
CCc1c(C(=O)NC[C@H]2CCCO2)[nH]c2ccccc12 | 52
CCCc1ncn(Cc2nc(-c3sccc3C)oc2C)n1 | -6
Cc1ccccc1Cn1c(CN2CCC(C(=O)NCCCN3CCCC3)CC2)cc2ccccc21 | -19
COc1c(Cl)cc(Cl)cc1CNCC1CCNCC1 | -62
CCc1nc(CN(C)C(=O)c2cc(-c3ccccc3)no2)no1 | 6
Cc1c(-c2nnnn2-c2ccc(F)cc2)cnc2cc3c(cc12)OCO3 | 78
Cc1cc(C)nc(NS(=O)(=O)c2ccc(N=C3NC(=O)CS3)cc2)n1 | -7

Carrying on.
SMILES	Tg IFNy HTS
CCOc1ccc(CC(=O)N2CCC3(CC2)Nc2ccc(C)c(C)c2-n2cccc23)cc1OCC	29
Cc1cccn2c(CNC(=O)c3cccc(Cn4cccn4)c3)cnc12	-11
COc1cccc(CNC(=O)C2=C(C)C(=O)OC23CCN(S(C)(=O)=O)CC3)c1	24
CO[C@@H]1CN(C)C(=O)c2ccc(NC(=O)c3ccno3)cc2OC[C@@H](C)N(S(C)(=O)=O)C[C@H]1C	96
O=C(c1ccco1)N1CCC2O[C@H](COCCN3CCCC3)CCC21 (stereo partly drawn)	-4
COCCN1C[C@H]2[C@H](C(=O)N(C)C)CCS(=O)(=O)[C@H]2C1	62
O=C(Cn1c(=O)cc(-c2nc(C3CC3)no2)c2ccccc21)NCc1ccc(Cl)cc1	44
Cc1nc(-c2nnc(SCc3ccc(C(F)(F)F)cc3)o2)cs1	-68

More compounds:
SMILES	Tg IFNy HTS
CC1=NN(c2ccccc2)C(=O)C12Cc1ccc(Cl)cc1N1CCCCC12 (stereo not drawn)	46
C[C@@H](NC(=O)C[C@H]1CC[C@@H]2[C@@H](COc3ccc(NS(=O)(=O)c4ccc(Cl)cc4)cc3C(=O)N2C)O1)c1ccccc1	-89*
CCOC(=O)c1ccccc1NC(=O)N1CCC2(CC1)Nc1cc(OC)ccc1-n1cccc12	68
Cc1cccc2ncc(C(=O)N[C@H]3C[C@H]4CN(C)CCN4C3)c(=O)n12	-4
Cn1ccnc1C(NC(=O)c1cn2c(n1)CNCC2)C1CC1 (stereo not drawn)	6
C[C@H](CO)N1C[C@H](C)[C@@H](CN(C)Cc2ccc3c(c2)OCO3)OCCCC[C@H](C)Oc2ccc(NS(=O)(=O)c3cn(C)cn3)cc2C1=O	43
CO[C@@H]1CCN(C(=O)Cc2ccccn2)[C@H]1Cc1ccncc1	0
CN1CCN(c2ccc3cc(Cl)ccc3n2)CC1=O	36

Following part.
SMILES	Tg IFNy HTS
CC(=O)N1CCC2(CC1)CCN(C(=O)c1cc(C)n(C)n1)C2	-26
CC(C)OC(=O)CSc1nnc(-c2ccc(O)cc2)n1C	6
CCOc1ccc2oc(C)c(C(=O)N3C[C@@H](N)C[C@H]3C(=O)NC(C)C)c2c1	0
COc1ccc(-c2nc(NCC3CCN(Cc4ccc(C)cc4)CC3)c3ccccc3n2)cc1	-59
CC(C)NC(=O)Cn1ncc2c(N3CCCCC3)ncnc21	-46
Cc1ccc2[nH]c(=O)c(-c3nc(-c4cccc(Cl)c4)no3)c(O)c2c1	6
O=C(c1ccccn1)N1CC2(C1)[C@H](c1ccccc1)[C@@H](CO)N2Cc1ccc(F)cc1	-35
CC(C)n1nc(C(C)(C)C)cc1C(C)(C)C	42

Structures shown so far with a thiophene ring, fused or not, in the order listed:
SMILES	Tg IFNy HTS
CCC(CO)N(Cc1ccsc1)C(=O)c1c[nH]c(=O)cn1 (stereo not drawn)	11
Cc1ccccc1-c1ncc(CN(CCN(C)C)Cc2cccs2)cn1	-25
Cc1ccsc1C(=O)N1CC(C(=O)NCC2CC2)C2(CCOCC2)C1 (stereo not drawn)	5
CCCc1ncn(Cc2nc(-c3sccc3C)oc2C)n1	-6

Other records.
SMILES	Tg IFNy HTS
COCc1ncn2c1CN(S(=O)(=O)c1ccc(F)cc1)CC2	-18
CCOC(=O)c1nc(N2CCN(C3CCCCC3)CC2)c2ccccc2n1	4
COc1cccc(S(=O)(=O)N2CCCCN3[C@@H](CO)[C@H](c4ccc(C#CCC(C)C)cc4)[C@@H]3C2)c1	-61
CCCS(=O)(=O)N1CCCC2(CC(Nc3nccs3)CO2)C1 (stereo not drawn)	68
CCOc1ccc(C(=O)CC(SCc2ccc(Cl)cc2)C(=O)O)cc1 (stereo not drawn)	-22
O=C(NCc1ccccc1N1CCCC1)c1ccc(-c2ccc(Cl)cc2)[nH]c1=O	86
CSc1cccc(NC(=O)c2nnn(Cc3nc(-c4ccc(Cl)cc4)oc3C)c2C)c1	-29
CCCC(=O)N1C[C@H]2[C@@H](c3ccccc31)[C@@H](CO)N2Cc1cocn1	-3

(more compounds)
SMILES	Tg IFNy HTS
CCOc1cccc(C2c3[nH]c4ccccc4c3CCN2C(=O)Cc2cccs2)c1 (stereo not drawn)	i
CCn1ncc(Cl)c1C(=O)N1CCn2nc(C(=O)NC3CC3)cc2C1	116
CCc1cnc(C)nc1N1CCCC(N2CCN(c3ccccc3C)CC2)C1 (stereo not drawn)	-24
CCN(CC)CCC(=O)N1c2ccccc2Sc2ccc(Cl)cc21	-1
CC(=O)N1CCC2(CC1)OC(=O)C(C)=C2C(=O)N1CCN(c2ccc([N+](=O)[O-])cc2)CC1	103
Cc1ccc(C2(O)CCN(Cc3ccc(-c4ccccc4Cl)o3)CC2)nc1	6
Cn1cnc(S(=O)(=O)Nc2ccccc2SCc2c(F)cccc2Cl)c1	77
CN(C)CC(=O)N[C@@H]1CC[C@@H](CCNC(=O)C2CCC2)O[C@H]1CO	-8

(further entries)
SMILES	Tg IFNy HTS
Cc1cccc(C(=O)N(CCN(C)C)Cc2ccsc2)c1	1
COc1cccc(-c2noc(-c3c(O)c4cc(C)ccc4[nH]c3=O)n2)c1	-6
COc1ccc(-c2nc(Cn3c(C)cc(C)c(-c4nc(-c5ccccc5)no4)c3=O)c(C)o2)cc1	-86*
CN1CCN(C(=O)c2ccc3c(c2)nnn3C)CC1=O	7
COc1ccc(CCn2c(C3CC3)n[nH]c2=O)cc1	-4
COC(=O)CC(=O)CCc1cc(OC)no1	-2
Cc1cccc2cc(C(=O)N3CCOC(c4ccc(Cl)cc4)C3)oc12 (stereo not drawn)	3
Cc1ccc(Nc2nc(N)nc(CN3CCc4ccccc4C3)n2)cc1	-99*

(further entries)
SMILES	Tg IFNy HTS
Cc1ccc(NC(=S)N(C)C)cc1F	43
c1nc2c([nH]1)CCNC2c1cc(CN2CCCCC2)cs1 (stereo not drawn)	1
COc1ccc(Cc2nnc(NC(=O)CC(C)C)s2)cc1	-69
CCc1csc(CNC(=O)Cc2nc3ccccc3o2)n1	14
COc1ccc(-c2ccccc2[C@@H]2[C@@H](C#N)N(C(=O)C3CCC3)[C@H]2CO)cc1	-11
COCCN1CC2(CCC1=O)CCN(C(=O)C1CC=CC1)CC2	15
CCc1nc(OCC(=O)Nc2ccc(Br)cc2F)c2ccccc2n1	-4
Cc1ccccc1-c1ccc2c(c1)O[C@H](CN(C)C(=O)Nc1ccc(C(F)(F)F)cc1)[C@@H](C)CN([C@H](C)CO)S2(=O)=O	-97*

Other structures follow:
SMILES	Tg IFNy HTS
CCn1c(=O)n(CC)c2cc(NC(=O)c3cccc(N4CCCC4=O)c3)ccc21	72
CS(=O)(=O)N1CCCC1CCc1ccc(Cl)nn1 (stereo not drawn)	41
Cc1ccccc1N1CCN(S(=O)(=O)CC23CCC(CC2=O)C3(C)C)CC1 (stereo not drawn)	24
CN1CCOCC2(CCCN(C(=O)Cc3cccs3)C2)C1 (stereo not drawn)	-3
CCc1nccc(CN2CCC(Cc3ccc(F)cc3)CC2)n1	-51
Clc1ccc(Nc2nc3nonc3nc2Nc2ccc(Cl)cc2)cc1	-103*
CCCCC1C(=O)N(C)CCN1C(=O)Nc1nnc(C(C)(C)C)s1 (stereo not drawn)	-2
CC(=O)N1CCC(C(=O)NCc2ccccc2)(N(C(=O)c2ccc(C)cc2)C2CCCC2)CC1	-37

New compounds follow.
SMILES	Tg IFNy HTS
Cc1cc(Cn2ccnc2-c2ccc(C(=O)O)cc2)no1	-15
CN(C)C1COC2(CCN(CC3CCC3)CC2)C1 (stereo not drawn)	-8
CC(C)CC#Cc1ccc([C@@H]2[C@@H](CO)N3CCCCN(C(=O)Nc4ccccc4)C[C@H]23)cc1	-43
Cc1ccc2c(c1)c(-c1nc(CC3CCN(C)CC3)no1)nn2C	-6
COc1cc(OC)cc(-c2noc(-c3nnn(Cc4nc(-c5ccccc5OC)oc4C)c3C)n2)c1	2
O=C(CCc1ccc(Cl)cc1)N1CCCC(O)(CO)CC1 (stereo not drawn)	-8
COc1cc(N2C[C@@H]3COC[C@]3(COCC(=O)N(C)C)C2)ncn1	0
O=C(CC12CC3CC(CC(C3)C1)C2)N1CCCOC1	-23
O=c1[nH]c(Cc2ccccc2)nc2c1oc1ccccc12	?
Nc1ccccc1S(N)(=O)=O	11&34
Cn1cc(N2C[C@@H]3CN(Cc4cccs4)C[C@@H]3C2=O)cn1	20
